# Compound activity from PubChem BioAssay.
# Biofilm kill mix: mixture kills Candida albicans biofilm cells; C. albicans biofilm persisters + clotrimazole, fluorescence viability; primary screen in compound mixtures of four per well; 120,000 tested, 0.02% active; inhibition, % at 7.6 µM;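 active = inhibition above 30.3% in the primary screen of four-compound pools, then above 30% when the compound was retested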;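 also: compounds exposed to preformed 24 h biofilms for 48 h; the number belongs to the whole pool; some results filed as inactive read as strong as hits; inactives centre near 12; 0% = biofilm with clotrimazole alone and 100% = kill control; retested singly at about 60 µM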
#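 Probe or stimulus – Clotrimazole 50 µg/mL co-treatment · System – C. albicans biofilms · Schedule – 24 h biofilm formation, then 48 h compound exposure, 37 °C · Evaluation – percent inhibition of biofilm viability · Technique – 2-h Alamar Blue fluorescence, 535/590 nm excitation/emission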
# * hit, by the source's call. These rows are one share of the data. The share of hits here may be higher or lower than overall.
canonical_smiles	Biofilm kill mix
O=C(NNC1OC(CO)C(O)C(O)C1O)c1cccnc1 (stereo unspecified)	10.1
Cc1nc(CNC(=O)c2cc(COc3c(F)cccc3F)on2)cs1	21.8
Cc1ccc(NC(=O)C2CCCN2S(=O)(=O)c2ccc3c(c2)n(C)c(=O)c(=O)n3C)cc1C (stereo unspecified)	9.2
COc1ccc(CC(=O)NCC(=O)N/N=C(/C)c2ccco2)cc1	17.1
CCCCCCCn1c(NC(=O)CC)nc2ccccc21	20.8
O=C(O)c1ccc(Nc2nc(-c3ccccc3)c3ccccc3n2)cc1	9.5
Cc1ccc(S(=O)(=O)NCC(c2ccccc2)N2CCCCC2)cc1 (stereo unspecified)	11.5
COc1ccc(-n2c(=S)[nH]c3cc(C(=O)NCc4ccco4)ccc3c2=O)cc1OC	4.5
O=C(c1cccc2ccccc12)C1CCCN(C(=O)CCc2cnccn2)C1 (stereo unspecified)	11.5
CC(C)CC1C(C#N)=C(N)Oc2n[nH]c(-c3ccccc3)c21 (stereo unspecified)	9.9
CCN(CC)c1ccc(CN2CCC(C(=O)NCc3ccc(C)cc3)CC2)cc1	12.2
Cc1ccc(-c2nn(-c3cccc(F)c3)cc2CNCc2cccnc2)o1	10.6
CCc1ccn2cc(-c3cc(-c4ccccc4)no3)nc2c1	22.9
Cc1cc(Cl)ccc1N(CC(=O)NCCSCc1ccco1)S(C)(=O)=O	13.7
CCNc1nc(NCC)nc(SCCOC(=O)Nc2ccccc2)n1	11.9
CC(=O)c1cccc(NC(=O)CSc2nnc(-c3cccnc3)o2)c1	4.4
COc1ccccc1NC(=O)CCS(=O)(=O)c1ccccc1	25.2
COCCNC(=S)Nc1cc(OC)c(OC)cc1C#N	-1.2
COc1ccc(OCCNC(=O)CSc2ccc(C(F)(F)F)cc2[N+](=O)[O-])cc1	8.8
Cc1c(CCOC(=O)c2cc([N+](=O)[O-])cc([N+](=O)[O-])c2)sc[n+]1CC(=O)c1ccc(Br)cc1	9.0
CC(Cc1ccccc1)C(=O)Nc1ccccc1 (stereo unspecified)	7.3
COc1ccc(C2CC(=O)C=C(O)C2)cc1 (stereo unspecified)	10.7
CCOC(=O)C1CCCN(C(=O)c2cccc(S(=O)(=O)N3CCOCC3)c2)C1 (stereo unspecified)	4.8
Cc1nc2ccccc2c(=O)n1Nc1cccc(Cl)c1	20.1
CC12CN3CCN(CC(C3)/C1=N/NC(=O)Nc1ccccc1)C2	12.2
COc1ccc(C(=O)Cn2c(NCCO)nc3ccccc32)cc1	17.5
O=[N+]([O-])C(=C1Nc2ccccc2N1)C(Cl)=C(Cl)Cl	24.6
COc1cccc(CC2(CO)CCCN(Cc3cc4ccccc4[nH]3)C2)c1 (stereo unspecified)	5.4
COc1cc(C2NC(=O)NC(C)=C2C(C)=O)cc(OC)c1OC (stereo unspecified)	7.4
NC(=O)CC(NC(=O)Cc1ccc(Br)cc1)c1ccc(NCC2CC2)c([N+](=O)[O-])c1 (stereo unspecified)	-3.3
CCc1c(C)nc2ncnn2c1N1CCCC(C(=O)NCc2cccs2)C1 (stereo unspecified)	6.6
CCn1c(CN2CCN(c3cccc(C)c3C)CC2)n[nH]c1=S	13.6
Cc1nc2sc(C(=O)Nc3ccccc3)c(N)c2c(C)c1[N+](=O)[O-]	17.7
COC(=O)c1ccc(NC(=O)C(=O)N2CCN(C(=S)Nc3ccccc3OC)CC2)cc1	10.1
CN(C)S(=O)(=O)c1ccc(Nc2nc(C3CC3)nc3c2nnn3Cc2ccccc2Cl)cc1	8.1
CC1CCN(c2c(NCC3CCC(C(=O)NCCc4ccccc4)CC3)c(=O)c2=O)CC1 (stereo unspecified)	18.1
CC(C)N=C1NN=C(c2ccc(Cl)c(Cl)c2)CS1	-4.0
CSc1ccccc1NC(=O)Cn1nc([N+](=O)[O-])cc1C	17.9
O=C(NNC(=S)NC(=O)c1ccco1)c1ccc(F)cc1	29.6
O=c1c2sccc2nc(SCc2cc(=O)n3cc(Br)ccc3n2)n1Cc1ccccn1	19.7
O=C(Nc1ccc(N2CCOCC2)nc1)c1c(F)cccc1F	6.0
Cc1cc(Cl)c(S(=O)(=O)Nc2cc(S(=O)(=O)N3CCOCC3)ccc2F)cc1OCC(N)=O	24.4
CN(C)c1ccc(NC(=O)c2cnsn2)cc1	28.6
CCN1CC2([N+](=O)[O-])CC=C(OC)C([N+](=O)[O-])(C1)C2 (stereo unspecified)	15.7
COC(=O)C1=C(C)NC(=O)/C1=C/c1ccc(CNS(=O)(=O)c2ccc(C)cc2)o1	12.2
COc1cccc(-c2nc(CCl)cs2)c1	-5.8
CCSc1ncc(Cl)c(C(=O)Nc2ccccc2)n1	19.2
COCCNC(=O)/C(C#N)=C/C(C)=C/c1ccccc1	7.7
COc1ccc(CCNc2ncnc3sccc23)cc1OC	13.6
Cc1cccc(NC(=S)N(C)Cc2cn(C)c3ccccc23)c1	16.8

# New compounds follow:
canonical_smiles	Biofilm kill mix
Cn1c(=O)c(C(=O)CN2CCN(Cc3ccc4c(c3)OCO4)CC2)c(N)n(Cc2ccccc2)c1=O	18.6
CCOC(=O)Cn1nc(C)c(NC(=O)COc2cccc(Cl)c2)c1C	11.6
O=C(NCCc1ccccc1)C(=O)NCC1CCNCC1	15.1
Cc1ccc(C2NC(c3ccc(C)cc3)C(C)C(=O)C2C)cc1 (stereo unspecified)	-2.0
CN(Cc1cccc(F)c1)CC(O)COCc1ccccc1Cl (stereo unspecified)	5.4
COc1ccc(N2CCC(CNC(=S)Nc3c(C)cccc3C)C2)cc1 (stereo unspecified)	23.7
CC(C)=CCc1c2c(c3occ(-c4ccc(O)cc4)c(=O)c3c1O)C=CC(C)(C)O2	29.9
O=C(CN1CCC(C(=O)c2cccc(Cl)c2)CC1)Nc1cccc(C(=O)O)c1	22.8
O=C(CSc1n[nH]c(=O)n1-c1cccnc1)N1CCOCC1	-0.4
Cc1cccc(CN2CCN(Cc3cnn(-c4ccccc4F)c3)CC2CCO)n1 (stereo unspecified)	9.5
CN(Cc1ccccc1)C(=O)C1CCN(S(=O)(=O)c2cc([N+](=O)[O-])ccc2Cl)CC1	-0.6
COc1ccc(C(=O)C(/C=N/O)=N/Nc2ccc(F)cc2)cc1	18.1
CCOc1ccc(CC(=O)Nc2ccc(-c3ccc4nnc(C)n4n3)cc2)cc1	10.1
O=C1/C(=C/c2ccc(O)cc2)CCc2ccc([N+](=O)[O-])cc21	3.5
COc1cccc(CC(NC(C)=O)C(=O)NC2CCN(S(=O)(=O)c3ccc(NC(C)=O)cc3)CC2)c1 (stereo unspecified)	15.7
COc1cc([N+](=O)[O-])ccc1NC(=O)Cn1ccsc1=N	3.8
COC(=O)CS(=O)(=O)c1cc([N+](=O)[O-])ccc1NC(=O)OC	1.2
Cc1cc(=O)oc2cc(OCCC[n+]3ccccc3)ccc12	3.4
CCN(CC)C(=O)N(CC)Cc1ccccc1	16.0
O=C(CN1CCN(c2ccc([N+](=O)[O-])cc2)CC1)Nc1nccs1	20.6
COc1ccc(NC(=S)N/N=C/c2ccc(F)c(F)c2)cc1	19.7
CN(C)CC1CCCCC1OC(=O)/C=C/c1ccccc1 (stereo unspecified)	18.6
Cc1ccc([N+](=O)[O-])cc1NC1CC(O)C(CO)O1 (stereo unspecified)	11.1
CNCCCNC(=O)c1ccc(/C=N/O)nc1	4.9
CCn1c(SCc2ccccc2)nnc1C1CCCCC1	16.9

# Quoted at random: three entries already listed, in no set order.
canonical_smiles	Biofilm kill mix
CC(C)=CCc1c2c(c3occ(-c4ccc(O)cc4)c(=O)c3c1O)C=CC(C)(C)O2	29.9
CN(Cc1ccccc1)C(=O)C1CCN(S(=O)(=O)c2cc([N+](=O)[O-])ccc2Cl)CC1	-0.6
O=C1/C(=C/c2ccc(O)cc2)CCc2ccc([N+](=O)[O-])cc21	3.5

# Later entries.
canonical_smiles	Biofilm kill mix
CNc1nc(SC)n(C)c(=O)c1N=O	19.6
O=C(COC(=O)C1CCN(S(=O)(=O)c2ccc3c(c2)OCCO3)CC1)Nc1ccc(C(F)(F)F)cc1	22.1
O=C(O)C(Cc1cn[nH]n1)=NO	3.2
COc1ccc(-c2nn(-c3ccccc3C)cc2CNCc2cccnc2)cc1F	20.1
CCc1ccc(NC(=O)CSc2nc3n[nH]c(C)c3c(=N)n2-c2cccc(OC)c2)cc1	10.7
O=C1C=CC(=O)N1c1ccc(N2CCCCC2)cc1	-3.4
CCOc1cc2nc3c4ccccc4n(C)c3nc2cc1OCC	11.6
COC(c1ccccc1)c1nnc(CCC(=O)N(C)CCCC2CCCC2)o1 (stereo unspecified)	-2.8
N=C(N)SCc1cn(-c2ccccc2)nc1-c1ccc(Br)cc1	10.9
CCN(CC)S(=O)(=O)c1cccc(C(=O)N/N=C/c2ccccn2)c1	1.4
NC(=O)CN1CCN(c2cccc(Cl)c2)CC1	14.7
CCOc1ccc(-n2cccc2C=O)cc1	17.2
CCN(CC)CC(C)CNC(=O)CN1C(=O)CSc2ccc(S(=O)(=O)N3CCOCC3)cc21 (stereo unspecified)	9.5
CCn1ncc(-c2csc(N)n2)c1C	6.4
CCC(C)NC(=O)CNC(=S)N(Cc1ccccc1F)C1CCCCC1 (stereo unspecified)	2.6
CC(C)Cc1csc(NC(=O)c2ccc(F)cc2)c1C(=O)O	4.6
COC(C[C@H]1O[C@H]1[C@H](O)COCc1ccccc1)OC	17.9
CCCc1ccc(C#N)c(SC2CC(=O)N(c3ccc(OC)cc3)C2=O)n1 (stereo unspecified)	23.3
O=C(NCCCN1CCOCC1)C(=O)NCc1ccccc1	25.2
Cc1cc(Oc2ccc(C)c(Cl)c2)nc(SCC(=O)c2ccccc2)n1	0.7
Cc1cc(=O)oc2cc(NC(=S)NCc3ccccn3)ccc12	-5.9
COc1cc(C(=O)NCCN2C(=O)S/C(=C\c3cccs3)C2=O)cc(OC)c1OC	6.4
O=c1cc(C(F)(F)F)nc(-c2ccccc2OC(F)(F)F)[nH]1	13.2
C/C=C/C(=O)N1CC2(CC(c3cccc(NC(=O)COc4ccc(Cl)cc4)c3)=NO2)C[C@@H]1C(N)=O (stereo partly specified)	-2.4
CCOC(=O)C1=NN(c2ccc(Cl)cc2)C(=O)C1	21.0
C=CCn1c(SCc2ccc(C(=O)O)cc2)nc2sc(C)c(C)c2c1=O	22.6
COc1ccccc1C(c1nnnn1Cc1ccccc1)N1CCN(C2CCCC2)CC1 (stereo unspecified)	4.9
Cn1nnnc1SCc1ccc([N+](=O)[O-])cc1	5.9
O=C(CN1C(=O)CC(c2ccccc2)S(=O)(=O)c2ccccc21)N1CCOCC1 (stereo unspecified)	13.7
O=C(Nc1ccccc1C(=O)O)c1ccc(Br)c(S(=O)(=O)NCc2ccccc2)c1	-0.6
Cc1c(C(=O)O)oc2c1/C(=N\O)CC(C)(C)C2	20.2
c1ccc(Cn2c(-c3ccccc3)c[n+]3c2SCCC3)cc1	16.2
CCC(C)(C)NC(=O)c1sccc1Oc1ccc(F)cc1[N+](=O)[O-]	15.5
COc1cc(/C(C)=N/NC(=O)CSc2nncn2C)ccc1OCc1ccccc1Cl	12.2
COc1ccc(NC(=O)CSc2nnc3c4c(nc(-c5ccccc5)n23)CC(C)(C)OC4)cc1	-8.9
C=CCn1c(SCc2csc(-c3ccc(C)cc3)n2)nnc1-c1ccccc1OC	16.9
CC(=O)c1ccc(OCCOc2ccc(C#N)cc2)cc1	22.8
Cc1cc(OCCCCOc2ccc(C#N)cc2)ccc1[N+](=O)[O-]	20.9
O=C(NCc1ccco1)/C(=C\c1cccs1)NC(=O)c1ccccc1	0.1
O=C(CN1C(=O)NC2(CCCCC2)C1=O)Nc1ccc(N2CCOCC2)cc1	11.9
CCN1C(=O)/C(=C\C=C\c2ccccc2[N+](=O)[O-])SC1=S	10.5
NC[C@@H]1O[C@H](C23CC4CC(CC(C4)C2)C3)Cc2c1ccc(O)c2O	17.2
CN1N=C(c2ccc(F)c(F)c2)CSC1=NCc1ccccc1	16.6
CC(C)CC(NC(=O)OC(C)(C)C)c1cn([C@@H](Cc2ccc(O)cc2)C(=O)N2CCN(C(=O)OC(C)(C)C)CC2)nn1 (stereo partly specified)	17.2
COc1ccc(-c2cc(C(F)(F)F)n3nc(C(=O)Nc4c(C)n(C)n(-c5ccccc5)c4=O)cc3n2)cc1	15.5
CC1CCC2(CC1)NC(=O)N(CC(=O)Nc1ccccc1-c1ccccc1)C2=O (stereo unspecified)	9.2
CSc1ccc(/C=N/n2c(C)nnc2C)cc1	8.4
Fc1ccc(C(c2nnnn2C2CCCCC2)N2CCCC2)cc1 (stereo unspecified)	7.6
Cc1nnc(SCc2ccon2)n1-c1ccccc1	18.5
Cc1ccc(CSc2nnc3ccc(-c4ccncc4)nn23)cc1	2.9

# Other compounds:
canonical_smiles	Biofilm kill mix
O=S(=O)(c1ccc(Cl)cc1Cl)n1ccc2cccnc21	17.0
O=C(Nc1nnc(-c2ccccc2)s1)c1ccc(F)cc1	0.8
Cc1ccc(C)c(-n2nnnc2SCC(=O)c2c(N)n(C)c(=O)n(C)c2=O)c1	13.1
O=S(=O)(O)c1cccc(N=Nc2c(O)ccc3ccccc23)c1	7.4
O=C(CNc1ccccc1Cl)N/N=C1\CCCc2ccccc21	0.5
CCCOc1ccc(-c2cn3ccccc3n2)cc1[N+](=O)[O-]	18.3
O=C(N/N=C1\CCc2ccccc21)c1ccncc1	2.6
COc1ccccc1NC(=O)CC(c1ccc(F)cc1)c1ccco1 (stereo unspecified)	15.2
O=c1[nH]c(CSc2ncc(C(F)(F)F)cc2Cl)nc2ccccc12	13.7
